NPYLR7 agonist: agonists of mosquito NPYLR7 receptor, primary screen, cell-based, Aedes aegypti, calcium fluorescence, mosquito biting behavior; AID 1259423, 2018; hit rate 0.15% among 270,000; HEK293T NPYLR7/Galpha15, GCaMP6s calcium fluorescence; activation, % at 10 µM; Aedes aegypti neuropeptide Y-like receptor 7 (NPYLR7); in the data active = activation above about 40%;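 note: 0% = vehicle and 100% = reference agonist at the receptor; some compounds past the cut are filed as inactive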
NPYLR7 agonist max-min: further read-out of NPYLR7 agonist, marked with its call; activation, %; measured here: Max-Min RFU normalised activation; some inactives read as strong as hits;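 span of the calcium signal over five minutes; 0% = vehicle and 100% = native peptide agonist; compound fluorescence can raise it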
* hit, by the source's call; & = joins results of further samples. This is a subset (hit frequency here may not be typical).

SMILES	NPYLR7 agonist	NPYLR7 agonist max-min
CCOC(=O)N1CCC(C(=O)NC(C)C23CC4CC(CC(C4)C2)C3)CC1 (configuration not stated)	15	10
CC1C(=O)N(c2ccc3c(c2)OCO3)CCN1C(=O)c1cccc(F)c1 (configuration not stated)	19	11
O=C1OC(c2ccc3c(c2)OCO3)=NC1=Cc1cnn(Cc2ccccc2Cl)c1	2	0
CCC(C)NS(=O)(=O)c1ccc2c(c1)CCN2C(C)=O (configuration not stated)	0	-2
Cc1c(C(=O)NNc2cc(=O)n(C)c(=O)n2C)cccc1[N+](=O)[O-]	-2	-3
O=c1oc2ccc(Cl)cc2cc1-c1nnc(Nc2cccc3ccccc23)s1	-4	-4
Cc1c(C#N)c2ncnc(-c3ccccc3)c2n1-c1ccccc1	1	17
CC(C)(C)OC(=O)N1CCN(C(=O)c2cc3ccccc3cc2O)CC1	3	1
CC(=O)N1CCC(NS(=O)(=O)c2ccc3c(c2)CCCC3)CC1	-3	-4
COc1ccccc1Oc1cc(N2CCN(C(=O)c3ccco3)C(C)C2)ncn1 (configuration not stated)	15	10
Cc1cccc(N2C(=O)C(c3c(C)[nH]n(-c4ccccc4)c3=O)=C([n+]3ccccc3)C2=O)c1	-2	0
CC(=O)[C@@]1(O)CC[C@H]2[C@@H]3CCC4=CC(=O)CC[C@]4(C)[C@H]3CC[C@@]21C	-9	-10
O=C(Nc1ccc2c(c1)OCCO2)c1cc(=O)c(OCc2ccc(F)cc2)c[nH]1	2	2
COc1ccccc1/C=C/CN1C[C@H]2C[C@H](O)[C@H](O)C[C@H]2C1	15	5
Cc1ccc(-c2cnc(CCC(=O)Nc3nc4ccc(S(C)(=O)=O)cc4s3)o2)cc1C	0	-1
O=C(NC1CCC(NC(=O)[C@H]2CCCN2S(=O)(=O)/C=C/c2ccccc2)CC1)c1ccccc1 (some centres not stated)	6	19
CC1CCN(c2nc(-c3ccccc3)nc3c2CN(C(=O)Nc2ccc(Cl)c(Cl)c2)CC3)CC1	-12	-8
Nc1cc(-c2ccnc3ccccc23)c2cc[nH]c2n1	2	0
COc1cc(-c2ccc3c(c2)COC2(CCN(C(=O)N[C@@H]4C[C@H]4c4ccccc4)CC2)O3)cc(OC)c1OC	9	11
COc1cccc(-c2cc(C(=O)NC(C)C)nc3cc(-c4ccccc4)nn23)c1	11	6
Cc1noc(C)c1CC(=O)NCC1(N2CCCCC2)CCCCC1	10	9
COc1cccc(C2C(=C(O)c3ccc(Cl)cc3)C(=O)C(=O)N2CCCN2CCOCC2)c1 (configuration not stated)	3	2
CC(=O)CC1(O)C(=O)N(CN2CCOCC2)c2ccccc21 (configuration not stated)	7	6
CC1(C(=O)NCc2ccccc2Br)CCN1C1Cc2ccccc2C1 (configuration not stated)	8	2
Cc1nc2cccc(C)n2c(=O)c1NC(=O)c1ccc2ccccc2c1	2	0

Compound profiles, as listed above.
CCC(C)NS(=O)(=O)c1ccc2c(c1)CCN2C(C)=O (configuration not stated) is entered as NPYLR7 agonist = 0; NPYLR7 agonist max-min = -2
Cc1cccc(N2C(=O)C(c3c(C)[nH]n(-c4ccccc4)c3=O)=C([n+]3ccccc3)C2=O)c1 is entered as NPYLR7 agonist = -2; NPYLR7 agonist max-min = 0

Sorted by heavy-atom count (falling): three of the compounds above
SMILES	NPYLR7 agonist	NPYLR7 agonist max-min
O=C(NC1CCC(NC(=O)[C@H]2CCCN2S(=O)(=O)/C=C/c2ccccc2)CC1)c1ccccc1 (some centres not stated)	6	19
O=C1OC(c2ccc3c(c2)OCO3)=NC1=Cc1cnn(Cc2ccccc2Cl)c1	2	0
CC1(C(=O)NCc2ccccc2Br)CCN1C1Cc2ccccc2C1 (configuration not stated)	8	2

Further records:
SMILES	NPYLR7 agonist	NPYLR7 agonist max-min
CCn1c(C2CCN(CC3=Cc4cccc(OC)c4OC3)CC2)n[nH]c1=O	6	0
COc1ccc(CC(=O)N2CCN(S(=O)(=O)c3cc4c5c(c3)CCC(=O)N5CCC4)CC2)cc1	-3	6
CCOC(=O)C1(Cc2cccc(OC)c2)CCCN(C(=O)C(=O)c2ccccc2)C1 (configuration not stated)	-4	-7
CC1SC(c2ccccc2Cl)N(CCN2CCN(C(=O)c3cccc(F)c3)CC2)C1=O (configuration not stated)	4	13
CCCc1cc(NC2CC(=O)N(CCc3ccccc3)C2)nc(C)n1 (configuration not stated)	9	6
COc1cc(OC)cc(-c2nnc(SCc3ccccc3C#N)n2-c2ccccc2C)c1	-6	8
CCCc1cc(C(=O)N2CCC(c3ccccc3C(=O)O)C2)n[nH]1 (configuration not stated)	5	-7
Cn1cccc1C(=O)N1CCCCC1CCOC(=O)c1ccco1 (configuration not stated)	8	4
CC(=O)O[C@H]1CC[C@]2(C)C3=CC(=O)[C@@]4(C)C(C[C@@H]5OC6(OCC(C)CC6Br)[C@@H](C)[C@@H]54)C3CC[C@H]2C1 (some centres not stated)	-13	-15
Clc1ccc(-c2cnc(CSc3nnc(C4CC4)n3C3CC3)o2)cc1	10	12
CCC1(CC)C(=O)NC(=O)N=C1N	4	4
N#CC1C(=N)n2ncnc2NC1c1ccc(F)cc1 (configuration not stated)	0	-2
COc1ccc(-c2nn(-c3cccc(F)c3)c(OC(C)=O)c2-c2ccc(NC(=O)C3CC3)cc2)cc1OC	0	4
COc1ccc(NC(=O)N2CCC(Cn3cc(C4CCCC4)nn3)CC2)cc1	-6	-11
Clc1cccc(Cn2ccnc2CNc2ccccc2)c1	13	22
Cc1noc(-c2cccnc2N(C)Cc2ccc(S(C)=O)cc2)n1 (configuration not stated)	2	-2
Cc1ccc(S(=O)(=O)N2CCC(C(NC(=O)c3cccc(C)c3)C(=O)N3CCCC3)CC2)cc1 (configuration not stated)	-5	3
COC(=O)C(=O)N1CCc2cc(OC)c(OC)cc2C1c1ccc(F)cc1 (configuration not stated)	23	14
C=CCOCC(O)CN(Cc1ccc(F)cc1)Cc1ccc(C)s1 (configuration not stated)	18	30
COc1ccc(C)c2sc(N(Cc3cccnc3)C(=O)c3cc(C)no3)nc12	7	6
Cc1ccccc1C(=O)NC(=NCC(C)C)OCC(C)C	33	48
OC[C@H]1O[C@@H](c2nc(-c3nc(-c4ccc(C(F)(F)F)cc4)no3)cs2)[C@H](O)[C@@H](O)[C@H]1O	1	0
O=c1[nH]c(CSC/C=C/c2ccccc2)nc2ccsc12	-4	2
CCCC(C(=O)OCC)/C(C)=N\NC(=O)Cc1ccc(OC)cc1 (configuration not stated)	3	6
Cc1cc(C(=O)NC2CCCc3c2cnn3-c2ccc(C)c(C)c2)nc(C)n1 (configuration not stated)	4	-2

(more compounds)
SMILES	NPYLR7 agonist	NPYLR7 agonist max-min
Cc1ncc(-c2c(-c3ccccc3)ncn2CCNC(=O)c2ccncc2)s1	2	1
CCCn1nnnc1CN1CCC(c2ccc(O)cc2)CC1	9	3
O=C(c1cccc(F)c1)N(CCN1CCOCC1)Cc1nccn1Cc1ccccc1Cl	8	9
CC1=CC(=O)CC(C)(C)C1(O)/C=C/C(C)=C\C(=O)NCCc1c[nH]c2ccccc12 (configuration not stated)	2	-6
O=C(O)C1C2C=CC(O2)C1C(=O)Nc1ccc(S(=O)(=O)NCCc2ccccc2)cc1 (configuration not stated)	-11	-16
CCN(CC(=O)NC)C(=O)c1ccc(C2CCCCC2)cc1	1	-1
CCCCCCCCCCOc1ccc(C2=N/C(=C\C(Cl)=C\c3ccccc3)C(=O)O2)cc1	-5	-13
COc1ccc(CC2(CCC(=O)NCC3OCCc4ccccc43)CCC(=O)N2)c(F)c1 (configuration not stated)	12	-2
CC(=O)NC(NC(=S)Nc1ccc(C(C)=O)cc1)C(Cl)(Cl)Cl (configuration not stated)	-7	-13
O=C(Nc1ccc2c(c1)OCO2)C1=CC=CN2CCS(=O)(=O)N=C12	1	-5
COCCCN(Cc1csc(COc2ccc(C)cc2)n1)S(=O)(=O)c1ccc(C)cc1	-9	-5
C=CCN(CC(=O)N1CCc2sccc2C1c1ccc(OC)cc1)C(=O)c1cc(OC)cc(OC)c1 (configuration not stated)	24	35
Cc1nn(-c2ccc(F)cc2)c2nc(CCC(C)C)nc(N3CCN(C(=O)C4C[C@H]4c4ccccc4)CC3)c12 (some centres not stated)	9	8
O=C(c1cnn(-c2ccccc2)c1C(F)(F)F)N1CCC(c2cn(Cc3cccc(F)c3)c3ccccc23)CC1	2	-2
COc1ccc(N(C)S(=O)(=O)c2cccc(C(=O)NC3CCCCC3C)c2)cc1 (configuration not stated)	-6	-9
CCOc1ccc(-n2c(O)c(C=NC(CO)(CO)CO)c(=O)[nH]c2=O)cc1	5	0
c1ccc(CN2CCC(Nc3nncc(-c4ccccc4)n3)C2)cc1 (configuration not stated)	1	-1
Cc1nc2c(=O)n(CC(N)=O)nc(-c3ccccc3)c2s1	5	5
O=C(CSc1cn(CC(=O)N2CCCCCC2)c2ccccc12)NC1CCCC1	42*	46*
Cc1ccc2c(C)c(C(=O)N3CCC(c4ccncc4)CC3)oc2c1C	-2	-5
COc1cc(C=C2N=C(c3ccccc3)OC2=O)ccc1OCC(=O)N1CCOCC1	7	11
CC1(C)CC(c2nccn2Cc2cnn(Cc3ccccc3)c2)CCO1 (configuration not stated)	5	3
COc1cc2nc(COc3cc(Cl)c(Cl)cc3Cl)[nH]c(=O)c2cc1OC	1	2
CC(C)OC(=O)c1c(NC=C(C#N)C#N)sc2c1CCCC2	2	2
CCN(C(=O)c1ccc2c(=O)n(CC)c(=O)[nH]c2c1)c1ccccc1C	7	4

More entries follow:
SMILES	NPYLR7 agonist	NPYLR7 agonist max-min
O=C(NCCC(c1ccccc1)c1ccccc1)c1cc(-c2ccccc2F)nn1-c1ccc(Cl)c(Cl)c1	-5	5
O=C1CN(C(=O)COC(=O)C2SCCc3ccccc32)CCN1 (configuration not stated)	6	2
COCCNC(=O)c1cc(NC(=O)c2cc(Cl)cc(Cl)c2)ccc1N1CCN(c2ccccc2OC)CC1	16	20
Cn1c(=O)ccn(CC(=O)Nc2sccc2C(=O)C(C)(C)C)c1=O	3	-3
CCC(C(=O)Nc1nnc(SCC(=O)c2cccc(OC)c2)s1)c1ccccc1 (configuration not stated)	-5	10
COC(=O)c1cccc(C(=O)Nc2c(C)nn(-c3ccccc3)c2C)n1	0	0
CN1C2CCC1CC(OC(=O)C(CO)c1ccccc1)C2 (configuration not stated)	-3&-6&-15&-10&6	-8&-12&-20&-7&-5
Cc1cc(Nc2ccccc2)nc(N2CCN(C(=O)CCCc3ccccc3)CC2)n1	14	7
COc1cc2c(cc1OC)CN(S(=O)(=O)c1ccc(OC)c(N3CCN(C(=O)C4CCC4)CC3)c1)CC2	29	24
Oc1ccc(-c2onc3ccc(Cl)cc23)cc1	112*	227*
COc1ccc(/C=C/CN2CCCC(CNC(=O)c3cccs3)C2)cc1 (configuration not stated)	5&8	5&1
CCOC(=O)C1C(=O)C=C(c2ccc(F)cc2)CC1c1cccc(OC)c1 (configuration not stated)	8	10
CCc1nc(CN2CCC(c3[nH]ncc3-c3ccccc3)CC2)c(C)[nH]1	28	15
Nc1ncc(Cl)cc1[N+](=O)[O-]	-4	-10
CNC(=O)c1cccnc1N1CCC(N2CCCC(C(=O)N3CCCC3)C2)CC1 (configuration not stated)	8	5
COc1cccc(CC2CN(C(=O)Cc3c[nH]c(=O)n(C)c3=O)CCO2)c1 (configuration not stated)	5	-3
Cc1nnsc1C(=O)NCc1ccccc1Cl	-15	-17
CC(C)c1[nH]nc(C(=O)N(CCN(C)C)CCN(C)C)c1Br	14	13
O=C(C1CNCCN1C(=O)CCCc1ccccc1)N1CCCC1 (configuration not stated)	0	-5
CNCC1CC(c2cccc(F)c2)=NO1 (configuration not stated)	0	-4
CCCCCCn1c(CN2CCC(C(N)=O)CC2)nc2c1c(=O)n(C)c(=O)n2C	1	24
CC(C)C(=O)Nc1sc(-c2ccccc2)cc1C(N)=O	6	5
COCCNC(=O)c1c(N)n(/N=C\c2c[nH]c3ccccc23)c2nc3ccccc3nc12	8	-2
CCc1c(C)nc(-n2nc(C)cc2C)n(CC(=O)Nc2cccc(F)c2)c1=O	2	0
CN(c1ccccc1)c1ccccc1C(=O)N1CCSCC1	11	8

A second format for part of the listing above.
| mol | NPYLR7 agonist | NPYLR7 agonist max-min |
| --- | --- | --- |
| CC(=O)O[C@H]1CC[C@]2(C)C3=CC(=O)[C@@]4(C)C(C[C@@H]5OC6(OCC(C)CC6Br)[C@@H](C)[C@@H]54)C3CC[C@H]2C1 (some centres not stated) | -13 | -15 |
| Clc1ccc(-c2cnc(CSc3nnc(C4CC4)n3C3CC3)o2)cc1 | 10 | 12 |
| CCC1(CC)C(=O)NC(=O)N=C1N | 4 | 4 |
| N#CC1C(=N)n2ncnc2NC1c1ccc(F)cc1 (configuration not stated) | 0 | -2 |

Carrying on:
SMILES	NPYLR7 agonist	NPYLR7 agonist max-min
COc1ccc(-n2c(SCC(=O)Nc3cc(C)on3)nc3c([nH]c4ccccc43)c2=O)cc1OC	-7	-3
O=[N+]([O-])c1ccc(Oc2cc(C(F)(F)F)nc(SCc3ccc(F)c(F)c3)n2)cc1	0	1
COc1cccc(NC(=O)N2CCSC2c2ccccc2F)c1 (configuration not stated)	-19	-13
COc1cc(/C=C(\C#N)c2[nH]nc(N)c2C#N)cc(OC)c1O	0	-3
CC(Cn1cncn1)Nc1ccc(-c2nc(-c3ccccc3F)no2)cn1 (configuration not stated)	7	-7
CC(C)c1nc(CCN(C)c2nc(CCN)nc3ccccc23)no1	2	0
Cc1cc(-c2cccc3cccnc23)nc(-c2ccccc2O)n1	2	0
C/C=C(\C)C(=O)N1CCC2(CC1)CN(CC(=O)OC)C(=O)O2	0	21

Screening results: PubChem, Fisher Drug Discovery Resource Center
